AmpC inh no det – AmpC beta-lactamase inhibition, detergent-free assay; P00811; AmpC nitrocefin hydrolysis, absorbance 480 nm, no detergent; potencies from a single point are estimates; AID 585; 71,000 tested, 1.8% active; Potency, µM (highest dose often 28.7 µM), without a hit: at the highest dose activity change, negative = inhibition; active = falling curve, for most hits resting on a single point; inconclusive = weak or doubtful change; inactive = flat or rising curve; also: % of control where 0% means no effect; about half of the hits show no inhibition at the top dose; a quarter of the inactives give rising signals
Target sequence (P00811 whole entry, looked up): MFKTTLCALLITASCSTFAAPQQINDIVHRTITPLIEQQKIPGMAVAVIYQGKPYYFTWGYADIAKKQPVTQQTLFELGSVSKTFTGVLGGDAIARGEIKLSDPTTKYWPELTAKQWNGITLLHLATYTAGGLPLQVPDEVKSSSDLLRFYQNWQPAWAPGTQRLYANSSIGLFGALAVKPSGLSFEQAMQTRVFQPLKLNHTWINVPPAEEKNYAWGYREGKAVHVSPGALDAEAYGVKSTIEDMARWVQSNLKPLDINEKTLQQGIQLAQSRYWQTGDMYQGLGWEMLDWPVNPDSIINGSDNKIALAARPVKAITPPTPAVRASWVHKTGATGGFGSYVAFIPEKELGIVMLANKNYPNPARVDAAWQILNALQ
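AmpC in 20 mM phosphate buffer pH 7.0 was preincubated 15 min at room temperature with compounds. Nitrocefin (800 uM stock) was then added and hydrolysis followed at 480 nm every 20 s for 4 min.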
Starred values were filed as active, the others as inactive; ? = inconclusive; & = joins results of further samples; [ ] = remark or other dose. Potency is read from the fitted curve at half-maximal effect. An excerpt (hit frequency here may not be typical).

SMILES	AmpC inh no det
O=C(Cn1nc(C(F)(F)F)c2c1CCCC2)NCc1ccco1	4%
Cc1nn(-c2ccccc2)c2c1/C(=N/O)CC(C)(C)C2	12%
CCCc1[nH]nc2c1C(c1ccc(OC)c(Cn3nnc4ccccc43)c1)C(C#N)=C(N)O2 (centres undefined)	-9%
O=S(=O)(c1cccc(S(=O)(=O)N2CCC(N3CCCCC3)CC2)c1)N1CCOCC1	-12%
FC(F)(F)c1ccccc1-c1ccc2ncnc(NCCN3CCOCC3)c2c1	135%
COc1cccc(-n2c(SCC(=O)N3CCOCC3)nc3c([nH]c4ccccc43)c2=O)c1	21%
O=C(Nc1ccccc1NC(=O)c1ccco1)c1ccco1	-12%
O=C(NCc1cccs1)C1CCCN1C(=O)NC1CCCCC1 (centres undefined)	3%
COc1cc(C[C@H](C)N)c(OC)cc1I	0%&5%
COCc1cc(=O)n2[nH]c(-c3ccccc3)cc2n1	-7%
CCCOC(=O)c1sc2nc3c(cc2c1N)C(=O)CCC3	21%
Cc1[nH]c(=O)[nH]c(=O)c1S(=O)(=O)Nc1ccc(Oc2ccccc2)cc1	-8%
COc1cccc(C(=O)Nc2cccc(OC(C)=O)c2)c1	-8%
OCCOCCn1c2ccccc2c2ccccc21	30%
Cc1nc2cc(C(F)(F)F)ccc2n1C1CCN(CC(=O)N2CCOCC2)CC1	39%
Brc1ccc(-c2nnc3ccc(N4CCN(c5ccccc5)CC4)nn23)cc1	5%
CS(=O)(=O)N1CCCC(C(=O)NCc2ccccn2)C1 (centres undefined)	-15%
COCCn1cnnc1SCC(=O)Nc1ccccc1C(=O)Nc1ccc2c(c1)OCO2	3%
FC(F)(F)c1ccccc1-c1cc(N2CCNCC2)ncn1	-2%
CCC(=NC(C)c1ccccc1)c1c(O)n(C)c(=O)n(C)c1=O (centres undefined)	43%
CC1(C)CN=C(Nc2ccc(F)c(F)c2)S1	-9%
C=CCn1c(C)cc(C(=O)CSc2nnc(Cc3ccccc3)o2)c1C	31%
COCCNC(=O)c1ccc(Cn2c(=S)[nH]c3cc4c(cc3c2=O)OCO4)cc1	11%
CCN1CCN(c2nc3ccccc3nc2C(C#N)C(=O)OC2CCCCC2)CC1 (centres undefined)	85%
CC1(c2ccc3c(c2)OCO3)NC(=O)N(CC(=O)Nc2ccc(N3CCOCC3)cc2)C1=O (centres undefined)	16%
O=C(CSc1nccn1-c1ccccc1)Nc1ccc2c(c1)OCO2	-4%
Cc1noc(C)c1-c1cncnc1N1CCN(C)CC1	-7%
CCCCCOC(=O)Nc1nnc(CCC)s1	4%
COc1cccc2c1N1C(=O)c3c(C(=O)O)cccc3C1CC2(C)C (centres undefined)	-4%
CCOC(=O)C(C)Sc1nnc(Cn2c(=O)sc3ccccc32)n1-c1ccccc1 (centres undefined)	92%
O=c1cc(N2CCOCC2)[nH]c(=O)n1Cc1ccc(F)cc1	2%
c1ccc2c(N3CCCC3)nc(-c3ccncc3)nc2c1	55%
CC1CCC(NC(=O)Cn2ncc3ccccc32)CC1 (centres undefined)	6%
O=S(=O)(NCc1ccccc1Br)c1cccs1	-9%
CN(C(=O)CN(CCO)CC(=O)N(C)C(C)(C)Cc1ccccc1)C(C)(C)Cc1ccccc1	113%[12.8 µM]
CSc1nc(N2CCOCC2)c2c3c(sc2n1)CCCC3	37%
O=C(Cc1ccccc1)Nc1ccc(C(=O)O)cc1	-10%
CCOc1cc(C2NCc3ccccc3-n3cccc32)ccc1O (centres undefined)	-11%
CCOC(=O)CN1C(=O)NC(C)(c2ccc(OC(F)F)cc2)C1=O (centres undefined)	11%
COc1ccc(-n2nc3ccc(NS(C)(=O)=O)cc3n2)cc1Cl	5%
COc1ccc(-n2c(=O)c3c4c(sc3n(CC(=O)NCc3ccco3)c2=O)CCC4)c(OC)c1	68%
CCOC(=O)c1c(C)c(C(=O)Nc2cc(OC)ccc2OC)c(C)n1CC	94%
O=C(Nc1cccc(-c2cn3cccnc3n2)c1)c1ccco1	-6%
CN(C)C(=O)Oc1ccc(Cl)c2ccccc12	16%
O=C(Nc1cccnc1)c1ccc(CN2CCc3ccccc3C2)cc1	20%
S=C(Nc1ccc2c(c1)Cc1ccccc1-2)Nc1ccc2c(c1)Cc1ccccc1-2	-1%[5.75 µM]
Cc1ccc2c(c1)C1CCCC3C1N2CC(=O)N3Cc1ccccc1 (centres undefined)	12%
CN(CCc1ccccn1)Cc1ccc(Cl)cc1	4%
Cc1nn(C)c(C)c1S(=O)(=O)NC1CCCc2ccccc21 (centres undefined)	-11%
CCOC(=O)Cn1c(=O)n(C2CCCC2)c(=O)c2ccccc21	12%
O=C(Nc1cccnc1)c1cc(-c2ccc(Br)cc2)on1	-2%
CC(C)OCCCNC(=O)c1c(N)n(CC2CCCO2)c2nc3ccccc3nc12 (centres undefined)	127%
Cc1ccc(CNc2nc3ccccc3n3nnnc23)cc1	-11%
Cc1ccc(N(C(=O)CC2NC(=O)NC2=O)C2(C(=O)NC3CCCC3)CCCCC2)cc1 (centres undefined)	69%
C=CCN1C(=O)NC(=O)C(Cc2ccc(OC)c(OC)c2)C1=O (centres undefined)	-3%
COc1ccc(CCN2C(=O)c3[nH]nc(-c4ccccc4O)c3C2c2cccc(O)c2)cc1OC (centres undefined)	-8%
Cc1cc(C)c(C#N)c(N2CCSCC2)n1	14%
Cc1ccc(C)n1NC(=O)c1ccc(Cl)cc1Cl	-4%
N#CCSc1nnc(-c2cccnc2)n1-c1ccccc1	0%
Cc1ccc(Nc2nc(C(=O)NCCCN3CCOCC3)cs2)cc1	32%

Continued.
SMILES	AmpC inh no det
Cc1occc1C(=O)Nc1ccc2ccccc2c1	-5%
Cc1cc(C(C)(C)C)cc(CNC2CCCCC2)c1O	4%[5.75 µM]
O=C(OC1CCOC1=O)c1cncc(Br)c1 (centres undefined)	-8%
Cc1sc2ncnc(SCC(=O)N3CCCC3=O)c2c1C	68%
COc1ccc(N2CC(C)Cn3c2nc2c3c(=O)n(CCc3ccccc3)c(=O)n2C)cc1 (centres undefined)	83%
CC1(C)C2CCC1(C)C(OC(=O)CCn1ccnc1)C2 (centres undefined)	24%
Cn1c(=O)c(-c2cc(F)cc(F)c2)nc2cncnc21	1%
CCOC(=O)c1c(C)c(C(=O)N2CCCCCC2)c(C)n1CC	68%
COCCNc1nc(-c2cccc(OC)c2)nc2ccccc12	18%
COc1ccc(C(C(=O)OC(C)CN(C)C)c2ccccc2)cc1 (centres undefined)	24%
CN1CCN(/C(=N\S(=O)(=O)c2ccc(F)cc2)c2ccccc2)CC1	-10%
c1coc(-c2nc3nc4ccccc4n3nc2-c2ccco2)c1	-1%
Cn1c(-c2ccccc2)c(CCO)c2ccccc21	6%
CC(=O)Nc1ccc(C(=O)NC2CCCC2)cc1	-20%
Cc1onc(-c2c(F)cccc2Cl)c1C(=O)N[C@@H]1C(=O)N2[C@H]1SC(C)(C)[C@H]2C(=O)O	0.025µM*
Cc1cc2c(cc1C)N(CC(=O)N1CCCC1)C(=O)CC(c1ccccc1)=N2	143%
O=C(CN1CCC(O)(c2ccc(F)cc2)CC1)NCc1ccc(F)cc1	35%
Cc1c(NC(=O)C2CCCNC2=O)c(=O)n(-c2ccccc2)n1C (centres undefined)	-3%
O=C1C2CC=C(Cl)CC2C(=O)N1CN(Cc1ccco1)CN1C(=O)C2CC=C(Cl)CC2C1=O (centres undefined)	40%
CC(C)CC(NC(=O)OC(C)(C)C)C(=O)NC(C(=O)N1CCCC1C(N)=O)C(C)C (centres undefined)	19%
CN(Cc1cccc2ccccc12)Cc1cccc2ccccc12	-2%[5.75 µM]
CNC(=O)[C@@H]1C[C@H]1[C@@H](NC(=O)CNC(=O)OCc1ccccc1)c1ccccc1	10%
O=C(CCCC(=O)OCC(F)(F)C(F)F)Nc1nccs1	-8%
COc1ccc(-c2c(C#N)c(N)nc3c2CCCC3)cc1OC	11%
O=C(C1CCCN(S(=O)(=O)c2cnc[nH]2)C1)N(CCc1ccccc1)Cc1ccccc1 (centres undefined)	91%
CC1CCN(CCNC(=O)C2CCCN(S(=O)(=O)c3cccc4nonc34)C2)CC1 (centres undefined)	-4%
CC(C)N(O)C(=O)NC(C)(C)C	1%
CN1CCN(C(c2ccc(F)cc2)c2nnnn2Cc2cccs2)CC1 (centres undefined)	-5%
Cc1onc(-c2ccccc2Cl)c1C(=O)OCC(=O)N1CCCc2ccccc21	33%
Cn1c(=O)n(CCc2ccccc2)c(=O)c2c1nc1n2CCCN1c1ccc(F)cc1	14%
O=C(c1ccc2nc3ccc(Cl)cc3c(=O)n2c1)N1CCC2(CC1)OCCO2	115%
COc1ccc(C(=O)NCc2nnc(SCC(=O)Nc3cccc(C(F)(F)F)c3)o2)cc1OC	14%
Clc1cc(Br)ccc1OCCn1ccnc1	14%
N#Cc1ccccc1	-7%
Oc1[nH]c2ccccc2c1/C=N/c1nccs1	-4%
NCCC[C@@H](CC(=O)N[C@@H]1CCNC[C@H]1C(=O)N[C@H](CC(=O)N[C@@H](CCC(=O)O)CC(=O)O)Cc1ccccc1)NC(=O)C[C@H](CO)NC(=O)[C@@H]1CCCC[C@H]1N	45%
CSc1cccc(NC(=O)CN(C)S(=O)(=O)c2ccc(C)cc2)c1	-7%
Cn1c(SCc2ccccn2)nnc1-c1ccncc1	-8%
COc1ccc(S(=O)(=O)N(C)c2ccc(C(=O)N3CCOCC3)cc2)cc1	22%
CCN1CCN(C(=O)c2cc3c(=O)oc4ccc(C)cc4c3s2)CC1	23%
C=CCN(CC(=O)NCc1ccc(OC)cc1)C(=O)c1csnn1	-5%
Cc1nc2cc(-c3cccc(F)c3)nn2c(N2CCOCC2)c1C	21%
CC1(C)Cc2nc3oc4c(=S)nc[nH]c4c3cc2CO1	-2%
Cc1cccc(NC(=O)Nc2cccc(C)n2)n1	0%
Cc1ccc(F)cc1NC(=O)Cc1nn(C)c(=O)c2ccccc12	7%
CN(C)S(=O)(=O)c1ccc(Oc2ccccc2)cc1	3%
CN(N=O)c1ccc(O)c(O)c1	?
COc1ccc(NC(=O)c2ccco2)c(OC)c1	9%
Nc1nc2[nH]c(=O)cnc2c(=O)[nH]1	-7%
CCOc1cccc(-c2nnc3sc(COc4ccc(Cl)cc4)nn23)c1	7.9µM*
Cc1ccc2nc(NC(=O)c3ccc(Cn4cc(Cl)cn4)o3)sc2c1	-2%
Cc1nc2ccc(S(=O)(=O)NC(C(=O)N3CCCC3)C(C)C)cc2s1 (centres undefined)	4µM*[single pt active]
COc1cccc(Cn2c(=O)c(-c3cc(F)cc(F)c3)nc3cnc(N4CCOCC4)nc32)c1	1%
COc1ccc(NC(=O)CC2Oc3ccccc3NC2=O)cc1 (centres undefined)	4µM*[single pt active]
O=C(Cc1ccccc1)Nc1nnc(-c2cccs2)s1	-2%
O=C(CN1CCC(c2nc3ccccc3[nH]2)CC1)Nc1ccc2c(c1)OCO2	5%
CC(C)(C)c1ccccc1O	-13%
COc1ccccc1N1C(=O)CC(Sc2nccc(C)n2)C1=O (centres undefined)	-1%
CC(C)Sc1nc2ccccc2n1CC(N)=O	-4%
Cc1onc(-c2c(F)cccc2Cl)c1C(=O)N1CCc2ccccc2C1	57%

Entries listed so far with a Cl atom (twelve):
SMILES	AmpC inh no det
COc1ccc(-n2nc3ccc(NS(C)(=O)=O)cc3n2)cc1Cl	5%
CN(C)C(=O)Oc1ccc(Cl)c2ccccc12	16%
CN(CCc1ccccn1)Cc1ccc(Cl)cc1	4%
Cc1ccc(C)n1NC(=O)c1ccc(Cl)cc1Cl	-4%
Cc1onc(-c2c(F)cccc2Cl)c1C(=O)N[C@@H]1C(=O)N2[C@H]1SC(C)(C)[C@H]2C(=O)O	0.025µM*
O=C1C2CC=C(Cl)CC2C(=O)N1CN(Cc1ccco1)CN1C(=O)C2CC=C(Cl)CC2C1=O (centres undefined)	40%
Cc1onc(-c2ccccc2Cl)c1C(=O)OCC(=O)N1CCCc2ccccc21	33%
O=C(c1ccc2nc3ccc(Cl)cc3c(=O)n2c1)N1CCC2(CC1)OCCO2	115%
Clc1cc(Br)ccc1OCCn1ccnc1	14%
CCOc1cccc(-c2nnc3sc(COc4ccc(Cl)cc4)nn23)c1	7.9µM*
Cc1ccc2nc(NC(=O)c3ccc(Cn4cc(Cl)cn4)o3)sc2c1	-2%
Cc1onc(-c2c(F)cccc2Cl)c1C(=O)N1CCc2ccccc2C1	57%

(continued)
SMILES	AmpC inh no det
CCCn1cc(NC(=O)c2cc3n(n2)C(C(F)(F)F)CC(c2ccccc2)N3)cn1 (centres undefined)	34%
COc1ccc(O)c(/C=c2/sc3nc4cc(C)c(C)cc4n3c2=O)c1	-9%
CC(C)(C)C(=O)Nc1ccccc1C(=O)Nc1cccnc1	13%
Cc1noc(C)c1C(=O)N1CCC[C@@]2(CCN(c3ncccn3)C2)C1	3%
COc1ccccc1NC(=O)Nn1cnnc1	0%
COC(=O)CNC(=O)C1(C)C=CC2(CCCCC2)N1C(=O)OC (centres undefined)	22%
Nc1cc(N)nc(SCc2ccccc2)n1	-2%
Cc1nc(SCC(=O)NCc2ccco2)c2c(C)c(C)sc2n1	40%

Compound activity: PubChem BioAssay, National Center for Advancing Translational Sciences (NCATS)
